# HSV augment: increases HSV replication in cells; HSV replication augmentation in cells, fold increase; 0.005% of 220,000 active; maximum fold increase;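 active = peak rise of 1.5-fold or more in the series; inconclusive = self-fluorescent or not available for retest; tested in PC3 cells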;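 also: first round at 10 µM; read as green reporter fluorescence; hits show the peak of a series up to 25 µM; 1 = signal of infected wells without compound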
# GALR2 agonist: activates the human galanin receptor 2; O43603; GALR2-expressing cells, agonist activation read-out; activation, %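 (tested at 5 µM)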; 0.48% of 140,000 active; AID 803;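 active = above mean plus 3 SD of all compounds, about 5% in these data, not always enough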;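 also: 0% = vehicle buffer wells and 100% = reference agonist at full effect; tested in CHO reporter cells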
# Insulin prom inh: TRM-6 insulin promoter activity inhibition | AID 1273 | inhibition, % at 2 µM | 0.9% of 130,000 active | TRM-6 cells (human fetal islet line), insulin promoter-eGFP reporter, imaging; reporter expression induced with tamoxifen;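 active = inhibition above the mean plus 3 SD, with well images judged a real hit on visual review, cut at about 60% in these data, passing the limit was not always enough; inconclusive = inhibition over the cutoff but images rejected on review; inactive = inhibition not above the cutoff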
# PKD1 inh: PKD1 (human) kinase inhibition; Q15139; PKD1 kinase fluorescence polarization assay; inhibition, %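 (about 10 µM by stock and volumes)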; 0.056% of 200,000 active; AID 797;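 active = inhibition of 50% or more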;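 also: controls were vehicle for no effect and a reference inhibitor for full effect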
# Target sequence (Q15139 whole entry, looked up): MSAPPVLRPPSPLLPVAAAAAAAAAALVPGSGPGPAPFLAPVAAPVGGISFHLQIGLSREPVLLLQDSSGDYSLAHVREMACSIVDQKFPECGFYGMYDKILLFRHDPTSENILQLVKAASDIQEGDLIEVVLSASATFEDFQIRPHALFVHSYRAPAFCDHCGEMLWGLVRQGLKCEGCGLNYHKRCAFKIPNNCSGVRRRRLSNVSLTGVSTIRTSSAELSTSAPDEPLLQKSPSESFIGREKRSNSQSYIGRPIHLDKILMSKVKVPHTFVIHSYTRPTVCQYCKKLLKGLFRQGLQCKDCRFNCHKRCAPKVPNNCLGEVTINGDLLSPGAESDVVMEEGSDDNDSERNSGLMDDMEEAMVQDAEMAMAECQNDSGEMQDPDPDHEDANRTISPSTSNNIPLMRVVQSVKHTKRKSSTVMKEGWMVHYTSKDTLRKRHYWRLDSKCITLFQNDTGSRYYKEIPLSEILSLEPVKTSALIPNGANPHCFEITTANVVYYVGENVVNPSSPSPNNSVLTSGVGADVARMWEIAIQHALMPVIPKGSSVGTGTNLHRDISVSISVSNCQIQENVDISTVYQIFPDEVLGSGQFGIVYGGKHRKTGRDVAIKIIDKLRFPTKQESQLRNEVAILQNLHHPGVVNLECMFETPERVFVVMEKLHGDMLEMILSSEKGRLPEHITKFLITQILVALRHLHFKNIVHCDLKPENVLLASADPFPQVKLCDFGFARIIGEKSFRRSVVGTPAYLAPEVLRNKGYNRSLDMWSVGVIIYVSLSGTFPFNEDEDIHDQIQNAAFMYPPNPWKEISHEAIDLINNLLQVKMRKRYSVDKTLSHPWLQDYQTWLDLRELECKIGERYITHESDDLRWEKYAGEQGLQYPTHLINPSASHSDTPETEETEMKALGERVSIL
# RGS16-Gao: regulators of human RGS16-Galphao interaction | O15492+P09471 | bead-based flow cytometry RGS16-Galphao binding, fluorescence; actives lie on both sides | binding response (% of control), % at 10 µM | 0.38% of 220,000 active;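 active = below 25% or above 175%, edge rows of some plates excepted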;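 also: Galphao activated by GDP with aluminum fluoride before binding; 100% = wells without compound and 0% = beads without RGS; some results beyond the cut were filed as inactive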
# Insulin prom inh cell count: further read-out of Insulin prom inh, marked with its call; normalized cell count, %; measured here: cell count, toxicity; reference of the scale not given here;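 cells exposed to compound for 48 h; stained nuclei by imaging scaled within each plate; lower means fewer cells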
# HSV augment primary fold: second read-out of HSV augment, no call of its own (marks repeat the call); fold increase; compound at 10 µM; measured here: primary screen fold increase 10 uM; tested in PC3 cells;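 GFP signal in the first replicate; 1 = infected wells without compound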
# An asterisk follows results filed as active; i = inactive; ? = inconclusive; / = not tested or not shown; [ ] = another dose, or the depositor's remark.
structure,HSV augment,HSV augment primary fold,GALR2 agonist,Insulin prom inh,Insulin prom inh cell count,PKD1 inh,RGS16-Gao
COc1cccc(CNc2cccc3cccnc23)c1O,i,0.89,-1.9,19,105,-1,101
COc1ccc(C(C)=O)cc1CSc1nnc(-c2ccc(Cl)cc2)n1-c1ccccc1,i,0.99,-3.2,-23,112,-2,93
Cc1nnc(SCc2nc(N)nc(Nc3ccccc3)n2)s1,i,0.69,-0.1,56,57,-9,77
Cc1ccc(/C(N)=N/OC(=O)c2cccc(Cn3cc(C(F)(F)F)ccc3=O)c2)cc1,i,1.1,/,/,/,/,104
Cc1cc(C)n(CC(=O)c2ccc(Br)cc2)c(=O)c1C#N,i,1,-1.4,4,97,1,97
Cn1c(SCc2ccc(C#N)cc2)nnc1-c1ccccc1,i,0.96,-2.1,-12,75,-6,96
Cc1cc(C)n(-c2nnc(C)n2NS(C)(=O)=O)n1,i,0.98,0.1,-38,84,-5,90
CC(=O)Nc1ccc(S(=O)(=O)NCc2csc(C)n2)cc1,i,0.94,0.2,71,88,-3,/
CC(C)CNS(=O)(=O)c1ccc(OCC(=O)Nc2ccc(F)cc2F)cc1,i,0.98,-2.0,-40,130,-9,/
CCC(Sc1nc2ccsc2c(=O)n1-c1ccc(Cl)c(C)c1)C(=O)NCc1ccco1 (stereo not given),i,0.91,1.3,-35,86,4,95
O=C(CCN1C(=O)c2ccccc2C1=O)C1=NN[C@@H]2C(=O)N(c3cccc(F)c3)C(=O)[C@H]12,i,1,0.8,26,121,2,105
Cc1ccc(CCNC(=O)C23CN(Cc4ccccc4)CC2C(c2ccc([N+](=O)[O-])cc2)=NO3)cc1 (stereo not given),i,0.84,-0.7,29,27,-15,60
CCOC(=O)c1cc(COc2cc(Cl)cc(Cl)c2)on1,i,1,/,/,/,/,109
CC1CCN(C(=O)CSc2nnc(-c3ccncc3)n2C)CC1,i,0.93,-2.9,-48,125,-4,94
C/C(N)=C(/C#N)C(=O)CSc1nnc(Cc2ccccc2F)n1N,i,0.97,-1.9,57,89,0,96
CCOC(OCC)P(=O)(C(C)C)C(C)C,i,1,-0.9,-12,111,1,102
COc1ccc(-c2[nH]ncc2/C=N/NC(=O)c2cccc([N+](=O)[O-])c2)cc1OC,i,0.87,/,60,108,-4,106
COC(=O)C1=C(C)Nc2nnnn2C1c1cccs1 (stereo not given),i,0.81,-0.2,-243,43,-8,99
Cc1ccc(C(C)C)c(OCC(=O)NNC2=CC(=O)CC(C)(C)C2)c1,i,0.86,/,/,/,/,96
COC(=O)CSc1nnc(CNC(=O)c2ccc(S(=O)(=O)N3CCOCC3)cc2)n1C,i,0.89,/,/,/,-3,98
COC(=O)c1[nH]c2cc(C)ccc2c1NC(=O)CN1CCCc2ccccc21,i,0.97,-0.8,-191,107,3,107
COc1ccccc1Nc1nnc(SCC(=O)N2CCCC2)s1,i,1.1,-1.1,/,/,2,103
O=C(c1cccnc1)N1CCN(c2ccc([N+](=O)[O-])cc2Cl)CC1,i,1.2,-0.2,/,/,-2,103
CCc1nc2c(oc3ccccc32)c(=O)[nH]1,i,1.1,-0.8,42,70,-5,100
Cc1ccc(-c2nc3ccccc3c(=O)n2NC(=O)COc2ccccc2)cc1,i,0.98,-1.7,40,146,-5,97
CCCC1Cc2c(sc(N)c2C#N)CO1 (stereo not given),i,1,/,/,/,-3,101
CC(=O)C1=C(O)C(=O)N(c2ccc(S(N)(=O)=O)cc2)C1c1cccc([N+](=O)[O-])c1 (stereo not given),i,1.2,/,/,/,/,105
COc1ccc(C)cc1S(=O)(=O)N1CCC(C(=O)NCCc2ccccc2)CC1,i,0.93,-1.4,24,134,-4,94
Cc1cccc(-n2ccnc2CN2CCN(C3CCCC3)C(CCO)C2)c1 (stereo not given),i,1,/,/,/,3,98
O=C(/C=C/c1cccc([N+](=O)[O-])c1)NCc1ccco1,i,1.2,-0.1,2,133,10,107
Cc1ccc(NCC(=O)N/N=C/c2cc3ccccc3nc2Cl)cc1,/,/,-2.2,/,/,-1,105
CN(C(=O)c1ccco1)c1nnc(C23CC4CC(CC(C4)C2)C3)s1,i,0.97,2.2,/,/,-11,112
O=C(c1c(Cl)cccc1Cl)N1CCCCCC1,i,0.88,-1.1,/,/,-8,93
CC1(C)CC(=O)C=C(NC2CCCCCC2)C1,i,0.7,-1.4,/,/,5,101
COc1ccc(C2C=C(C)Nc3nc4ccccc4n32)cc1 (stereo not given),i,1.2,/,/,/,-6,102
COc1ccc(-c2nc(N)n(C(=O)Cc3ccccc3)n2)cc1,i,1.1,-3.7,-77,9,12,106
CC(=O)N/N=C/c1cc(C(C)(C)C)cc(/C=N/NC(C)=O)c1O,?,/,/,/,/,-5,109
CC(C)c1nnc(NC(=O)CCC(=O)NCc2cccs2)s1,i,0.92,1.2,-19,185,-9,112
CCC(C)NS(=O)(=O)c1ccc(S(=O)(=O)N(CC(=O)Nc2ccccc2)Cc2ccco2)cc1 (stereo not given),i,0.77,-0.8,-29,44,2,91
FC(F)(F)c1cccc(CNc2ncccc2-c2nc3cc(Cl)ccc3o2)c1,i,0.82,-2.4,60,110,-4,103
NS(=O)(=O)c1ccc(NC(=S)NC(=O)/C=C/c2ccco2)cc1,i,1.1,-0.9,/,/,7,97
Cc1cccc(OCCCCCn2ccnc2)c1C,i,0.96,-2.0,-55,212,3,107
CN=C1c2cc3cc(OC)ccc3n2CCN1Cc1ccccc1,/,/,-2.9,15,106,6,101
CC(C)C(=O)Nc1ccc(C(=O)Nc2nnc(C(C)(C)C)s2)cc1,i,0.92,/,15,144,4,103
CS(=O)(=O)N(CC(=O)NCc1ccncc1)c1ccc(Cl)c(Cl)c1,i,0.94,-0.3,14,79,-8,102
NS(=O)(=O)c1cccc(NC(=O)Cn2cc(C(F)(F)F)cc(Cl)c2=O)c1,i,0.7,/,/,/,/,98
Cc1ccc(Cn2nc(C)c(NC(=O)CSc3n[nH]c(C)c3[N+](=O)[O-])c2C)cc1,i,1,-1.1,-10,81,-6,89
O=C(Nc1ncc2c(n1)CC(c1ccccc1)CC2=O)c1ccco1 (stereo not given),i,1.3,-1.4,/,/,-6,101
CCCC(O)(CCC)C(=O)NNc1ccccc1,i,0.92,-1.3,-14,52,5,100
O=C(Nc1ccccc1)/C(=C\c1ccncc1)NC(=O)c1ccccc1,i,1.1,-3.0,/,/,-4,102
CN(C)CCNC(=O)CCCNC(=O)Cn1cnc2sc3c(c2c1=O)CCCC3,i,0.98,-1.5,6,68,4,93
CCCNS(=O)(=O)c1ccc(OCC(=O)N2CCN(c3ccccc3)CC2)cc1,i,0.95,/,/,/,-3,110
O=C1c2ccccc2C(Nc2ccccc2)N1Cc1ccc2c(c1)OCO2 (stereo not given),i,0.93,/,/,/,/,95
CN(C)N1C(=O)CC(N2CCCC2)C1=O (stereo not given),i,1.2,/,-64,89,-9,95
COc1ccccc1Oc1nc([N+](=O)[O-])nn1CC(N)=O,i,0.9,/,3,137,-4,100
CCc1ccc2ncc(C(=O)c3ccccc3)c(N3CCOCC3)c2c1,i,0.92,/,/,/,-11,102
CCOCCc1nnc(NC(=O)c2cc(OC)c(OC)cc2[N+](=O)[O-])s1,i,1.3,/,/,/,2,93
COc1ccc(S(=O)(=O)n2nc(OC(=O)c3c(-c4ccccc4Cl)noc3C)cc2N)cc1,i,0.83,-2.1,64,53,2,108
CCCCCn1c(=O)[nH]c2cc(C(=O)NCc3ccc4c(c3)OCO4)ccc2c1=O,i,0.92,-2.6,/,/,-7,100
CCOC(=O)CN(c1ccccn1)S(=O)(=O)c1ccc(OC)cc1,i,0.95,/,/,/,-5,100

# (continued)
structure,HSV augment,HSV augment primary fold,GALR2 agonist,Insulin prom inh,Insulin prom inh cell count,PKD1 inh,RGS16-Gao
CCc1ccccc1-n1cnc2cc(C(=O)O)ccc21,i,0.84,-0.9,/,/,-10,97
CN(CC(=O)NC(c1ccccc1)c1ccccc1)Cc1nc2ccccc2c(=O)[nH]1,i,0.85,-0.5,-5,113,-1,99
C=C1c2cc(CC)ccc2NC(=O)N1c1ccc(C)cc1,i,0.91,-2.4,/,/,-1,107
COc1ccc2cnn(-c3ccccc3)c(=O)c2c1OC,i,1.1,-2.5,-71,91,-2,98
COC(=O)C1=C(C(=O)c2ccc(C)cc2)C(c2ccccc2)n2nnnc2N1 (stereo not given),/,/,-0.7,-6,90,7,115
CCOc1ccc(NC(=S)NC(=O)/C=C/c2ccc(OC)cc2)c([N+](=O)[O-])c1,i,0.93,-0.7,-9,139,9,100
Cc1ccc2oc(=O)c3cnn(CC(=O)NCCc4ccsc4)c3c2c1,i,0.86,-2.5,/,/,3,75
CCCC(=O)NC(=S)Nc1ccc(N2CCN(C(=O)c3cccs3)CC2)cc1,i,1,/,/,/,1,108
CCCCNC(=O)/C(C#N)=C/c1cccnc1,i,1.1,-1.8,0,95,-9,108
O=C(/C=C/c1ccc(Br)cc1)NC(=S)NNC(=O)c1ccco1,/,/,-1.3,22,127,-4,100
COc1ccc(C(=O)NCc2ccc(S(N)(=O)=O)cc2)cc1[N+](=O)[O-],i,1,/,/,/,-5,92
CCOC(=O)c1c(C)[nH]c(C(=O)OCC(=O)Nc2cc(C)c(Cl)cc2OC)c1C,i,0.67,-1.6,/,/,4,98
COc1cc2cc(Oc3ccc4ccc(=O)oc4c3)c(=O)oc2cc1OC(C)=O,i,1.1,/,/,/,-3,98
Cc1ccc(-c2cc(C(F)F)nc(N3CCOCC3)n2)cc1,i,1.1,/,9,106,3,90
Cc1ccnc(NC(NC(=O)C(C)C)(C(F)(F)F)C(F)(F)F)c1,i,1,-1.7,38,121,-6,128

# Two entries from above, set out differently:
CCOc1ccc(NC(=S)NC(=O)/C=C/c2ccc(OC)cc2)c([N+](=O)[O-])c1
  HSV augment: i
  HSV augment primary fold: 0.93
  GALR2 agonist: -0.7
  Insulin prom inh: -9
  Insulin prom inh cell count: 139
  PKD1 inh: 9
  RGS16-Gao: 100

Cc1ccc2oc(=O)c3cnn(CC(=O)NCCc4ccsc4)c3c2c1
  HSV augment: i
  HSV augment primary fold: 0.86
  GALR2 agonist: -2.5
  Insulin prom inh: /
  Insulin prom inh cell count: /
  PKD1 inh: 3
  RGS16-Gao: 75

# Next structures
structure,HSV augment,HSV augment primary fold,GALR2 agonist,Insulin prom inh,Insulin prom inh cell count,PKD1 inh,RGS16-Gao
O=C(NNC(=O)c1ccccc1Cl)c1cc2cc(OC(F)(F)F)ccc2[nH]1,i,0.98,/,/,/,/,102
C/C(CC(=O)Nc1ccccn1)=N\NC(=O)c1ccc2ccccc2c1,i,0.79,-1.5,14,42,-6,211*[activator]
Cc1cc(N=CC2=C(O)CCCC2=O)no1,i,1.1,-0.6,6,120,-12,94
COc1ccc2c(c1)c1nnc(SC)nc1n2C,i,0.82,-0.7,/,/,-7,107
O=C(COC(=O)COc1ccc(Cl)cc1)NCc1cccs1,i,0.97,-2.7,25,62,1,36
CCOC(=O)N1CCC(N2C(=O)c3ccccc3C2Nc2cccnc2)CC1 (stereo not given),i,1.1,-0.1,-14,99,-2,101
Cc1ccc(C(=O)Nc2cccc(C(F)(F)F)c2)cc1NC(=O)c1ccno1,i,0.73,/,/,/,/,103
Cc1ccccc1-c1nc(-c2ccc(NC(=O)c3cccs3)cc2)no1,i,0.91,-1.3,-3,115,12,104
Cc1cc(C)cc(NC(=S)NCc2ccncc2)c1,i,1,/,-11,120,-7,102
CCOC(=O)N1CCN(CC(=O)Nc2c(C(=O)OC)[nH]c3cccc(Cl)c23)CC1,i,0.89,-0.8,/,/,-1,108
CCOC(=O)C1(Cc2cccc(OC)c2)CCCN(C(=O)c2ccccc2C)C1 (stereo not given),i,1,/,/,/,/,95
CN=c1oc2ccc(Cl)cc2cc1C(N)=O,i,0.89,-1.0,-64,80,-15,83
c1ccc2c(c1)CC1(CCCC1)n1nnnc1-2,i,0.98,-3.0,/,/,-14,66
COc1ccc(/C=C/C(=O)C(C)(C)C)cc1OC,i,0.93,/,/,/,/,100
COc1ccc([N+](=O)[O-])cc1COc1ccc2c(-c3ccccc3)cc(=O)oc2c1,/,/,-0.9,21,100,-14,109
COc1ccccc1-c1noc(-c2ccncc2)n1,i,1,-1.1,11,98,-2,96
O=C(c1ccco1)N1CCN(c2ccc(S(=O)(=O)N3CCCC3)cc2)CC1,i,0.94,0.8,/,/,11,102
CC(C)(CC(=O)O)CC(=O)N1CCCN(c2nc3ccc(Cl)cc3s2)CC1,i,1.1,/,/,/,/,98

# Screening results (PubChem BioAssay)
